High-throughput results from PubChem.
Rango complex inh – Rango-importin beta binding inhibition. Potency, µM (doses to about 92.2 µM), without a hit: at the top dose inhibition of complex formation. Q14974. hit rate 0.031% among 340,000. AID 540263. Rango CFP/YFP FRET sensor + importin beta, 45 min; active = rising FRET ratio curve, often small or poorly fitted; inconclusive = mostly compound fluorescence or quenching in the first reads; inactive = flat curves in all reads;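 also: potency is read from the fitted curve at half-maximal effect; 0% = DMSO wells and 100% = buffer wells lacking importin beta; nearly all actives have a fitted effect of over 15% in size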
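Inhibition scored from the CFP 486 nm/YFP 530 nm FRET ratio 45 min after adding 0.125 microM importin beta to 50 nM Rango biosensor preincubated 5 min with compound (room temperature, PBS with DTT, Tween-20, BSA). No-importin wells as positive control.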
miR-21 FLuc – raises the signal of a miR-21 reporter; HeLa miR-21 FLuc reporter, luciferase, 48 h; Potency, µM (series often up to 38.3 µM), without a hit: at the top dose reporter change, positive = more light; 340,000 tested, under 10 active; AID 2288; active = well fitted rising curve with a large enough effect; inconclusive = small, poorly fitted or top-dose-only effect; inactive = no such curve, though single readings can be large or run the other way;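 also: % of control where 0% means no effect; miR-21 action dims this reporter so a rising signal means less miR-21 action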
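Using DMEM plus 10% FBS, HeLa miR-21-FLuc cells are incubated with test compounds (final up to about 40uM) for 48 hours; firefly luciferase signal is then imaged following reagent-mediated lysis.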
GLA inh pH 4.5 – blocks human alpha-galactosidase A at pH 4.5. P06280. purified enzyme, 4-MU-alpha-Gal fluorescence, pH 4.5. activity change, negative = inhibition, % at 105 µM. 230,000 tested, under 10 active. AID 1467; inconclusive = small, poorly fitted or top-dose-only inhibition, or a rising curve; inactive = flat fitted curve, though single readings scatter; no compound was filed as active;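 also: 0% = full activity with enzyme and -100% = basal without enzyme; dose as in the result columns while the protocol names 77 µM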
Target sequence (P06280 whole entry, looked up): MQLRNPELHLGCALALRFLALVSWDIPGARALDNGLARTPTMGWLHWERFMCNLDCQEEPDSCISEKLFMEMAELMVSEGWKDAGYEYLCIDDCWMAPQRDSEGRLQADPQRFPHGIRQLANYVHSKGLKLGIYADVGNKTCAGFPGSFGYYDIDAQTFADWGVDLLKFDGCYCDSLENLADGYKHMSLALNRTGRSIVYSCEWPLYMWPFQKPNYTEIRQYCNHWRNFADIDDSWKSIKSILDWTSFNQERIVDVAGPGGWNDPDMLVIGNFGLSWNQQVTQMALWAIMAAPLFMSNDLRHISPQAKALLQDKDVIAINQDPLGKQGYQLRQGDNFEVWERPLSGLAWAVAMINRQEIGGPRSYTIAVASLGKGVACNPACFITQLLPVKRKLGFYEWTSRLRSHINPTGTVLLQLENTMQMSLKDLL
Rango release inh – inhibition of RanGTP-driven Rango-importin beta dissociation; O95149+P62826; Biochemical FRET Rango-importin beta, RanGTP-induced dissociation; Potency, µM (doses to about 46.1 µM), for inactives: top-dose activity change, negative = inhibition; hit rate 0.071% among 340,000; AID 540253; active means falling FRET ratio curve, often poorly fitted, with flat reads before Ran was added; inconclusive means other falling curves, or compound fluorescence or quenching; inactive means flat or rising ratio curve;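 also: potency is read from the fitted curve at half-maximal effect; % of control where 0% means no effect; nearly all actives have a fitted effect of over 45% in size; -100% = wells without RanGTP and RCC1; the record marks most hits as doubtful in a second field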
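Rango FRET biosensor (snurportin-1 IBB flanked by N-terminal EYFP and C-terminal CFP10) at 0.1 uM, with 0.25 uM importin beta in PBS, 1mM DTT, 0.02% Tween-20, 0.1% BSA. 0.6 uM Ran, 2mM GTP and 0.2 uM RCC1 were then added for 45 min at room temperature. Inhibition read as loss of FRET rise.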
* marks the source's active call; other numbers are inactive results; ? = inconclusive; . = no result given.

Rango complex inh	miR-21 FLuc	GLA inh pH 4.5	Rango release inh	structure
6.8%	-14%	.	10%	COc1cc(-c2c(-c3ccc4c(c3)OCO4)noc2-c2ccsc2)ccc1F
0.6%	-14%	2	-5%	COc1nc(-c2ccncc2)nc2ccccc12
-0.8%	-2%	-1	2%	Cc1[nH]n(C)c(=O)c1C(=O)c1c(-c2ccccc2Cl)noc1C
-1.1%	0%	.	-3%	COc1cccc(CNC(=O)c2ccc(C)c(NC3=NC4CS(=O)(=O)CC4S3)c2)c1 (centres undefined)
-1.1%	28%	2	-1%	Cc1cccc(C)c1NC(=O)C(Cl)=C(Cl)Cl
?	1%	0	-9%	CCC1=NN2C(=N)/C(=C/c3c(C)nn(-c4ccccc4)c3Cl)C(=O)N=C2S1
-1.3%	3%	-23	-27%	CCC(C)NC(=O)CCS(=O)(=O)c1ccc(Br)s1 (centres undefined)
2.3%	.	.	-4%	O=C(O)C(c1ccccc1)c1ccccc1
0.5%	-29%	.	1%	Cc1ccc(OCc2ccc(-c3ccccc3)cc2)c([N+](=O)[O-])n1
-4.0%	-2%	-10	-2%	COC(=O)CNC(=O)c1c(-c2ccccc2Cl)noc1C
0.0%	-2%	.	7%	Cc1ccccc1OCC(=O)Nc1ccc(C(=O)Nc2ccccc2C(=O)O)cc1
-0.4%	.	.	-9%	CC(=O)c1ccc(S(=O)(=O)NCC(=O)Nc2nc3ccccc3[nH]2)cc1
4.6%	-6%	-15	2%	CCCC(=O)n1nc(-c2ccc(OC)cc2)nc1N
-0.2%	-11%	3	-8%	CCn1c(SCC(N)=O)nnc1-c1cc2c(C)nn(-c3ccccc3)c2s1
-1.8%	.	.	15%	COc1cccc(/C=N/NC(=O)NC23CC4CC(CC(C4)C2)C3)c1O
-2.7%	5%	-1	-12%	CCc1nnc2n1N=C(c1ccc(OC)cc1)CS2
?	19%	-11	9.2µM*	Cc1ccc(-n2c(O)c(C=Nc3cc(C)on3)c3ccccc3c2=O)c(C)c1
-0.8%	.	.	2%	COc1cc2ccccc2cc1C(=O)NC1CCCC1
-1.7%	-4%	-5	-6%	CCCOc1ccc(/C=c2\sc3nc(-c4ccco4)nn3c2=O)cc1OCC
1.1%	-59%	.	9%	O=C(NC1CCCC1)c1cc(-c2ccccc2O)on1
2.9%	-1%	-8	6%	CC(C)Cn1c(SCc2nc3ccccc3c(=O)[nH]2)nc2ccccc2c1=O
-2.4%	-5%	-4	1%	Cc1n[nH]c(=S)n(NC(=O)CC(=O)Nn2c(=S)[nH]nc(C)c2=O)c1=O
0.6%	.	.	-6%	COc1ccc2nc(SCC(=O)N(C)C3CCCCC3)[nH]c2c1
4.9%	1%	-3	-20%	[N-]=[N+]=CC(=O)C(c1ccccc1)(c1ccccc1)c1ccccc1
-3.6%	-6%	1	-5%	CS(=O)(=O)CCC(C(=O)OCC(=O)c1ccc(Cl)cc1)N1C(=O)c2ccccc2C1=O (centres undefined)
0.2%	-1%	-6	2%	O=C(OCCCN=C1NS(=O)(=O)c2ccccc21)c1ccc([N+](=O)[O-])cc1
-4.3%	-19%	0	0%	O=C(NNC(=S)NC1CCCCC1)c1ccc(Cl)s1
-1.3%	0%	.	2%	O=C(NC1CCN(C(=O)Nc2ccc(F)cc2)CC1)c1ccc(F)cc1
0.7%	-5%	.	19%	COc1ccc(C)cc1NC(=O)n1ncc2c(C)cccc21
-0.4%	-4%	6	19%	CCCNC(=O)Cn1cnc2sc(C(=O)N3CCN(c4ccc(F)cc4)CC3)c(C)c2c1=O
0.8%	1%	-10	1%	O=C1C2C(C(=O)N1/N=C/c1cc([N+](=O)[O-])c(O)cc1O)C1C=CC2C12CC2 (centres undefined)
-1.0%	-1%	5	?	Cc1ccccc1OCC(=O)OCC(=O)Nc1ccc(S(N)(=O)=O)cc1
6.5%	3%	.	17%	O=C(c1ccc(N2CCCCS2(=O)=O)cc1)N1CCN(c2ccccc2F)CC1
1.6%	-2%	-3	-4%	Cc1cc(=O)n2[nH]c(C)c(-c3ccc(Cl)cc3)c2n1
0.8%	0%	.	-5%	Cc1cc(C)cc(N(CC(=O)NC2CCCCC2)C(=O)c2csnn2)c1
-9.8%	0%	7	12%	CNC(=S)Nc1cc(C)ccc1OC(F)F
-1.7%	1%	.	-4%	Cc1c(C(=O)N2CCOCC2)c(S(=O)(=O)Nc2ccc(C(C)C)cc2)c(C)n1C
.	-5%	6	.	C/C(=N\NC(=O)CNC(=O)C(c1ccccc1)c1ccccc1)c1ccc(C)cc1
3.3%	?	-1	1%	Cc1ccc(-c2nnc(N3CCC(C)CC3)c3ccccc23)cc1C
-1.3%	0%	15	-1%	CCN(CC)CC(O)CN1C(=O)NC(C)(C)C1=O (centres undefined)
-0.4%	-10%	10	-11%	CCOC(=O)C1CCN(C(=O)Nc2ccc3oc(C)nc3c2)CC1
-2.1%	-1%	.	-4%	NC(=O)c1cc(S(=O)(=O)NCc2ccc(F)cc2)cs1
-2.8%	7%	-3	15%	COC(=O)c1ccc(C(=O)OC)c(NC(=O)CN(C)Cc2cccc(Cl)c2Cl)c1
-0.3%	-2%	.	-1%	O=C(O)c1ccc(Nc2nc3ccccc3nc2NS(=O)(=O)c2ccc(F)cc2)cc1
?	-6%	-3	4%	Cc1ccc(S(=O)(=O)NN2C(=O)/C(=C/c3cccs3)SC2=S)cc1
3.4%	0%	.	-12%	COCCN1CCN(C(=O)C2CCC(=O)N(Cc3ccc(Cl)cc3)C2)CC1 (centres undefined)
-0.4%	.	.	31%	CC1C(=O)N2CCCc3cc(NC(=O)C(=O)NCc4ccc5c(c4)OCO5)cc1c32 (centres undefined)
-0.4%	.	.	-8%	CSCCC(NC(=O)c1ccccc1Cl)C(=O)NCC(c1ccco1)N1CCCCC1 (centres undefined)
-1.0%	-2%	-8	0%	Cc1nc(Sc2cccn2C)c(C(F)(F)F)c(=O)[nH]1
-4.8%	.	.	0%	COc1cc(C(=O)NN2C(=O)NC3(CCC(C)CC3)C2=O)ccc1OC(F)F (centres undefined)
-0.7%	.	.	4%	Cc1cc(=O)oc2cc(OCC(=O)OC(C)C(=O)Nc3ccc(S(N)(=O)=O)cc3)ccc12 (centres undefined)
1.2%	-3%	2	0%	CCc1nnc(NC(=O)C2CCC2)s1
?	-2%	2	-10%	COc1ccc(S(=O)(=O)N2CCOCC2)cc1C(=O)Nc1cc(C)on1
-3.5%	25%	.	1%	O=C(NNc1c([N+](=O)[O-])cc(C(F)(F)F)cc1[N+](=O)[O-])c1ccco1
0.1%	-18%	.	-11%	NC(=S)N/N=C/c1ccc(C23CC4CC(CC(C4)C2)C3)cc1
.	-44%	-7	.	O=C(Nc1cccc(Br)c1)c1ccc(OC2CSC2)cc1
-4.2%	-9%	6	-8%	CSc1nc(N2CCOCC2)c2ccccc2n1
3.9%	-5%	3	12%	O=C(CCCSc1nc2ccccc2c(=O)[nH]1)c1ccc(F)cc1
5.0%	0%	.	23%	COc1ccccc1OCC(=O)Nc1ccc(S(=O)(=O)Nc2nccs2)cc1
3.4%	20%	.	-7%	Cc1cc(S(=O)(=O)N2CCN(c3ccccc3F)CC2)ccc1-n1cnnn1

Five structures from above, arranged by count of non-hydrogen atoms, smallest number first.
Rango complex inh	miR-21 FLuc	GLA inh pH 4.5	Rango release inh	structure
0.1%	-18%	.	-11%	NC(=S)N/N=C/c1ccc(C23CC4CC(CC(C4)C2)C3)cc1
?	-2%	2	-10%	COc1ccc(S(=O)(=O)N2CCOCC2)cc1C(=O)Nc1cc(C)on1
3.4%	0%	.	-12%	COCCN1CCN(C(=O)C2CCC(=O)N(Cc3ccc(Cl)cc3)C2)CC1 (centres undefined)
-0.4%	.	.	31%	CC1C(=O)N2CCCc3cc(NC(=O)C(=O)NCc4ccc5c(c4)OCO5)cc1c32 (centres undefined)
-0.7%	.	.	4%	Cc1cc(=O)oc2cc(OCC(=O)OC(C)C(=O)Nc3ccc(S(N)(=O)=O)cc3)ccc12 (centres undefined)

(list continues)
Rango complex inh	miR-21 FLuc	GLA inh pH 4.5	Rango release inh	structure
6.3%	-2%	3	-13%	O=C(O)c1oc2ccccc2c1CSc1ccccn1
-2.9%	-4%	-4	9%	CCN1CCCC1CNC(=O)C(=O)Nc1ccccc1OC (centres undefined)
-3.8%	15%	-5	-5%	O=C(N/N=C/c1ccc2c(c1)OCO2)c1cc(-c2ccncc2)nc2ccccc12
0.5%	-17%	-1	-1%	O=C(CSc1nnc(-c2ccccc2)n1-c1ccc(Cl)cc1)N/N=C/c1ccco1
?	11%	.	-21%	COCCc1nc2ccc(C(=O)NCc3cccc(-n4cccn4)c3)cc2o1
-1.6%	2%	-9	0%	COc1ccc(Oc2nc3ccccc3n3cccc23)cc1
-0.3%	-7%	-4	-3%	CCOc1ccc(NC(=O)CN(C)c2nnnn2-c2ccccc2)cc1OCC
0.3%	-2%	9	25%	Cc1cc(C)cc(NC(=S)NC2CC3CCCC(C2)N3C2CC2)c1 (centres undefined)
-2.1%	-1%	5	-6%	CCN(Cc1ccccc1)C(=O)COC(=O)CNC(=O)c1ccc(C)s1
1.7%	0%	1	-14%	Cc1cc(=O)[nH]c(Sc2c(-c3ccccc3)c3ccccc3[nH]c2=O)n1
3.1%	-14%	3	0%	COc1ccc(S(=O)(=O)N2CCOCC2)cc1NC(=O)CSc1ncnc2ccccc12
1.8%	-2%	0	1%	CCc1nnc(NC(=O)CSc2nnnn2-c2cccc(C(=O)OC)c2)s1
0.9%	.	.	-12%	CNS(=O)(=O)c1ccc(CNC[C@H]2O[C@@H](n3cnc(C(N)=O)n3)[C@H](O)[C@@H]2O)cc1
3.8%	1%	-10	0%	COc1ccc(CNC(=O)COC(=O)C2CCN(S(=O)(=O)c3ccccc3C(F)(F)F)CC2)cc1
2.7%	.	3	6%	COC(=O)[C@H]1[C@@H](C)N(Cc2ccccc2)C(=O)N[C@H]1c1cccc(C(F)(F)F)c1
-1.7%	3%	.	-3%	C=CCn1c(SCC(=O)NC2CCCC2)nc2c([nH]c3ccccc32)c1=O
-3.7%	.	.	4%	CC1CCCCC12NC(=O)N(CC(=O)N1CCN(S(=O)(=O)c3ccc4c(c3)CCC4)CC1)C2=O (centres undefined)
-0.1%	-6%	.	1%	CC(CCc1ccccc1)NC(=O)CC(C)c1ccccc1 (centres undefined)
0.2%	-17%	.	-19%	COc1ccccc1/C=N/n1nnnc1N
0.7%	1%	.	-5%	O=C(CCc1nc(-c2ccc(Cl)cc2)no1)NC1CCCC1
?	-31%	-3	?	Cc1cc(/C=C2/C(=N)N3C(=NC2=O)SN=C3S(C)(=O)=O)c(C)n1-c1ccc(F)cc1
0.9%	-2%	-6	15%	CCN(CC)S(=O)(=O)c1ccc(N2CCOCC2)c(NC(=O)COc2ccc(Cl)cc2)c1
0.3%	-46%	.	20%	O=C(Nc1cccc(Cl)c1)N1CCc2ccccc2C1
-2.5%	-62%	-4	24%	CC(C)c1cc(C(N)=O)c(NC(=O)c2cccc(COc3ccc(Cl)cc3)c2)s1
0.5%	1%	7	1%	O=C(c1ccc([N+](=O)[O-])cc1)N(C1=NCCCCS1)c1ccccc1
-0.9%	-31%	-1	-7%	COc1ccc(NC(=S)N2CCc3ccccc3C2)cc1
1.1%	1%	-11	1%	O=C(NCc1cccnc1)C(=O)N/N=C/c1ccc([N+](=O)[O-])cc1
?	-11%	6	-7%	O=C(C1=NNC2C(=O)N(c3ccccc3)C(=O)C12)c1nc(Cl)ccc1Cl (centres undefined)
5.8%	-1%	.	7%	CCn1c(=O)c(C(=O)NCc2ccccc2Cl)c(O)c2ccccc21
-1.2%	-5%	.	0%	Cc1cccn2c(=O)c3cc(C(=O)N4CCCCC4)sc3nc12
4.5%	3%	-6	13%	O=C(Cc1ccccc1)N1CCC(c2nc(-c3ccc(F)cc3)no2)CC1
?	11%	-17	-14%	Cc1cccc(N=C2NC(=O)/C(=C/c3cccn3C)S2)c1C
-1.7%	-9%	.	-2%	Cc1ccc(NCCC(=O)c2ccccc2)cc1Cl
0.6%	-4%	5	-6%	O=C(NCCc1ccccn1)C1CCN(S(=O)(=O)c2ccc3ccccc3c2)CC1

This is a subset (hit frequency here may not be typical).
